Source: PubChem BioAssay (ICCB-Longwood Screening Facility, Harvard Medical School)
HCMV UL50-53 inh – inhibitors of HCMV UL50-UL53 nuclear egress complex interaction. HTRF UL50-UL53 interaction, normalized percent inhibition. inhibition, % (test concentration not listed). actives 0.15% (n = 190,000);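 active = both replicates at 50% or more, plus weaker picks with an unusually low signal ratio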;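 also: stock transfer was 100 nL into about 20 µL; 0% = negative control wells and 100% = wells with untagged competitor protein; inactives centre near -12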
GIV-Gai inh – inhibitors of GIV GBA-motif binding to rat Galpha-i3; AID 1224905; percent of control (FP), % (concentration not given with the values); actives 0.42% (n = 210,000); Galpha-i3/FITC-GIV peptide fluorescence polarization, 90 min; hits give low values; scaled: aluminum fluoride 0%, vehicle 100%; P08753;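 active = replicate mean at 85% of control or lower, very high polarization wells dropped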;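 also: wells of about 15 µL received 100 nL stock; the first replicate is given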
Target sequence (P08753 whole entry, looked up): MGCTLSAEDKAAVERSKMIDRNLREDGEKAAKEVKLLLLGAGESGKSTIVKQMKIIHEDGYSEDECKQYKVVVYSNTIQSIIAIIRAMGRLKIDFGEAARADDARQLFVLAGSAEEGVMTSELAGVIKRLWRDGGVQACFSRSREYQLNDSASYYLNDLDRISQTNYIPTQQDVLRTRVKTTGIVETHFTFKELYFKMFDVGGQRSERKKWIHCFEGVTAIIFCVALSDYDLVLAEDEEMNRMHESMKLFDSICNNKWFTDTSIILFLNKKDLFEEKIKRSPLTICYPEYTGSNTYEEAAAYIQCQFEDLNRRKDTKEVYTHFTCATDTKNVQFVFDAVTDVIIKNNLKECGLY
Sa growth inh – inhibitors of Staphylococcus aureus growth at 42 °C. S. aureus RN4220 growth, OD600, 20 h; hits give low values. relative growth, % (test concentration not listed). actives 0.53% (n = 170,000);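 active = growth at 42 °C up to 50% and 20 or more points under that at 30 °C, or under 10% at both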;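 also: 300 nL library stock went into each well; scaled to the means of positive and negative controls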
Sa growth inh second temp – second read-out of Sa growth inh, no call of its own (marks repeat the call); relative growth, %; measured here: growth at 30 °C;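 optical density after 20 h as mean of two plates; 100% = untreated growth and lower means inhibition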
* marks the source's active call; other numbers are inactive results; · = not tested or not shown; & = joins results of further samples.

Abbreviations – A = HCMV UL50-53 inh; B = GIV-Gai inh; C = Sa growth inh; D = Sa growth inh second temp
canonical_smiles: CC(=O)n1cc(C(SCc2ccccc2)C(NO)C(=O)OCc2ccccc2)c2ccccc21 (configuration not stated)
  A: 1 | B: 105 | C: · | D: ·

canonical_smiles: CCNS(=O)(=O)c1ccc(-c2cc(C)no2)s1
  A: -72 | B: 103 | C: 96 | D: 69

canonical_smiles: NC(=O)c1cc(S(=O)(=O)N2CCCCC2)cs1
  A: · | B: 99 | C: 85 | D: 88

canonical_smiles: O=C1CCC(C(=O)OCc2csc(Nc3ccccc3)n2)N1 (configuration not stated)
  A: -12 | B: · | C: 88 | D: 98

canonical_smiles: FC(F)(F)c1ccc(NCC2CCCO2)nc1 (configuration not stated)
  A: -36 | B: 96 | C: 107 | D: 98

canonical_smiles: O=C(CSc1ccccc1)Nc1nc2c(s1)CCCC2
  A: -4 | B: 100 | C: 86 | D: 66

canonical_smiles: O=C(NCCN1CCN(Cc2ccccc2)CC1)c1ccc2c(Cl)c3c(nc2c1)CCCC3
  A: · | B: 97 | C: 92 | D: 87

canonical_smiles: CC(C)(CC(=O)O)CC(=O)Nc1ccc2ccccc2n1
  A: -20 | B: 97 | C: 102 | D: 85

canonical_smiles: CCN(CCN(C)C)C(=O)C1CCN(S(=O)(=O)c2c(C)noc2/C=C/c2ccccc2F)CC1
  A: · | B: 110 | C: 146 | D: 100

canonical_smiles: CCC(=O)c1ccccc1OCCn1cnc2ccccc2c1=O
  A: -30 | B: 102 | C: 104 | D: 95

canonical_smiles: COc1cc2nc(NCCCN(C)Cc3ccccc3)n3nc(-c4ccccc4)nc3c2cc1OC
  A: · | B: 102 | C: 95 | D: 79

canonical_smiles: O=C(CSc1ncccn1)NC12CC3CC(CC(C3)C1)C2
  A: -6 | B: · | C: 123 | D: 95

canonical_smiles: COc1ccc(-c2cc(C(F)(F)F)c3c(C)nn(-c4ccc(Cl)cc4)c3n2)cc1OC
  A: 6 | B: 105 | C: · | D: ·

canonical_smiles: O=C(COc1ccc(S(=O)(=O)N2CCOCC2)cc1)NCc1ccccc1
  A: -11 | B: 106 | C: 102 | D: 94

canonical_smiles: COc1cc(NC(=O)CCn2c(-c3ccccc3)cc(C(C)=O)c2C)cc(OC)c1
  A: · | B: 98 | C: 108 | D: 76

canonical_smiles: O=C1c2ccccc2C(=O)C1c1cc(=O)[nH]c2ccccc12
  A: -200 | B: 98 | C: 79 | D: 61

canonical_smiles: O=C(CC1Oc2ccccc2NC1=O)NCc1ccccc1 (configuration not stated)
  A: 3 | B: 100 | C: 103 | D: 83

canonical_smiles: O=C(CSc1nc2ccccc2nc1Cc1ccc(Cl)cc1)N1CCCc2ccccc21
  A: · | B: 100 | C: 86 | D: 89

canonical_smiles: COc1ccccc1CCNC(=O)c1ccc(C)o1
  A: -1 | B: 105 | C: 113 | D: 100

canonical_smiles: COc1cccc(C2CC(c3ccc(Br)cc3)=NN2C(=O)CCC(=O)O)c1OC (configuration not stated)
  A: 1 | B: 109 | C: · | D: ·

canonical_smiles: C=CCn1cc(/C=C2\SC(=O)N(C)C2=O)c2ccccc21
  A: -42 | B: 107 | C: 104 | D: 111

canonical_smiles: CCCc1nc2nc[nH]n2c(=O)c1NC(=O)Nc1ccc(OC)cc1OC
  A: -15 | B: 100 | C: · | D: ·

canonical_smiles: Cc1ccc2[nH]cc(CCNC(=O)C3CCCN(c4nc5ncccc5n5cccc45)C3)c2c1 (configuration not stated)
  A: -31 | B: 113 | C: · | D: ·

canonical_smiles: Cc1ccc(CNS(=O)(=O)c2ccc3c(c2)CC(C)N3C(=O)C2CCC2)cc1 (configuration not stated)
  A: · | B: 108 | C: 106 | D: 103

canonical_smiles: COCCn1c(C)cc(C(=O)CSc2nc3ccc(C)cc3[nH]2)c1C
  A: -33 | B: · | C: 109 | D: 78

canonical_smiles: COc1ccccc1CNS(C)(=O)=O
  A: 1 | B: · | C: 88 | D: 90

canonical_smiles: Cc1cc(=O)n2nc(N3CCC(C(=O)Nc4ccc(Br)cc4F)CC3)sc2n1
  A: -27 | B: 105 | C: 95 | D: 89

canonical_smiles: Cc1[nH]c2ccc(C(=O)Nc3ccc4c(c3)OCCO4)cc2c1C
  A: 21 | B: · | C: 110 | D: 94

canonical_smiles: O=C1C2C3C=CC(CO)(O3)C2C(=O)N1c1cccc2ccccc12 (configuration not stated)
  A: -33 | B: 99 | C: · | D: ·

canonical_smiles: N#Cc1ccc(C(=O)NC2CCC(NC(=O)c3ccc(C#N)cc3)CC2)cc1 (configuration not stated)
  A: -17 | B: · | C: 111 | D: 85

A run of entries from further up, as a working copy:
Abbreviations – A = HCMV UL50-53 inh; B = GIV-Gai inh; C = Sa growth inh; D = Sa growth inh second temp
canonical_smiles: O=C(CC1Oc2ccccc2NC1=O)NCc1ccccc1 (configuration not stated)
  A: 3 | B: 100 | C: 103 | D: 83

canonical_smiles: O=C(CSc1nc2ccccc2nc1Cc1ccc(Cl)cc1)N1CCCc2ccccc21
  A: · | B: 100 | C: 86 | D: 89

Record cards, from the list above.
Cc1ccc2[nH]cc(CCNC(=O)C3CCCN(c4nc5ncccc5n5cccc45)C3)c2c1 (configuration not stated) across the screens: HCMV UL50-53 inh = -31; GIV-Gai inh = 113; Sa growth inh = ·; Sa growth inh second temp = ·
COc1cccc(C2CC(c3ccc(Br)cc3)=NN2C(=O)CCC(=O)O)c1OC (configuration not stated) across the screens: HCMV UL50-53 inh = 1; GIV-Gai inh = 109; Sa growth inh = ·; Sa growth inh second temp = ·

Remaining list, next part
Molecule,HCMV UL50-53 inh,GIV-Gai inh,Sa growth inh,Sa growth inh second temp
Cc1sc(-c2noc(C3CC3)n2)cc1S(=O)(=O)N1CCCC(C(=O)NC2CCCCC2)C1 (configuration not stated),-12,109,·,·
COc1ccc(NC(=O)c2cc(N3CC(C)CC(C)C3)nc3ccccc23)cc1 (configuration not stated),-5,103,·,·
Cc1c(Nc2nc3nonc3nc2Nc2ccccc2F)c(=O)n(-c2ccccc2)n1C,-7,126,·,·
Cc1cc2cc(CNC(=O)CCC(=O)O)ccc2[nH]1,-13&-6,104,86,93
CCN1CCN(C(=O)C2CCC(CNS(=O)(=O)c3ccc(NC(C)=O)cc3)CC2)CC1 (configuration not stated),1,95,101,82
Cc1ccc(CNC(=O)c2nn(C)c3c2CS(=O)(=O)c2ccccc2-3)cc1,-20,107,103,84
CC1Cc2ccccc2N1C(=O)COc1ccccc1C#N (configuration not stated),-28,·,52,56
Cc1c(C(=O)O)sc2nc(C(F)(F)F)nn12,0,99,107,90
Cn1c(=O)c2ccc(C(=O)NC3CCCC3)cc2n2c(=O)n(CC(=O)NC3CCCCC3)nc12,-21,102,·,·
O=C1OC2(c3ccc(Br)cc3)C(OC(=O)C23CCCC3)C12CCCC2 (configuration not stated),-4,·,100,85
CC(=O)Nc1ccc(Oc2cc(C#N)c(C#N)cc2N2CCCCCC2)cc1,-7,101,88,91
O=C1CC(c2ccccc2Cl)Cc2nc(NCc3ccccc3)ncc21 (configuration not stated),-15,103,·,·
CC1(C)CC(=O)C2=C(C1)N1C(=C(C#N)C2c2cccnc2)N=C(N)c2ccccc21 (configuration not stated),·,102,125,84
CCc1ccccc1NC(=O)Nc1ncc(-c2ccccc2)n1C,9,103,·,·
Cc1ccnc(NC(c2cc(C)ccc2O)c2ccc3cccnc3c2O)c1 (configuration not stated),-52,105,89,64
COc1ccc(-c2cc(C(=O)OCC(=O)c3cccc(OC)c3)c3cccc(Cl)c3n2)cc1,-38,101,105,82
CNC(=O)COC(=O)c1cccs1,-26,·,94,87
Cc1nc(-c2ccc(C(=O)N3CCC(C(=O)Nc4nccs4)CC3)cc2)no1,-28,106,·,·
CCOc1cc(Br)cc(C2NC(=O)c3c(sc4c3CCN(C)C4)N2)c1O (configuration not stated),-70,115,98,89
O=C(Cn1c(=O)sc2ccccc21)NCc1ccccc1,-5,102,95,93
CN1CCC(OC(=O)c2cc3ccccc3oc2=O)CC1,-57,106,96,81
O=C(NCCCN1CCN(c2ccc(F)cc2)CC1)Nc1ccc(Cl)cc1,5,102,120,89
Cc1cccc(N(CC(=O)N2CCCC2)S(C)(=O)=O)c1,1,100,109,76
CCOC(=O)C1=C(C)N=c2s/c(=C\c3ccc(OC(C)=O)c(OC)c3)c(=O)n2C1c1ccc(OC)cc1 (configuration not stated),-23,102,·,·
COc1ccc(C(=O)O)cc1NCc1ccncc1,12,106,67,97
N#Cc1ccccc1NC(=O)COC(=O)C12CC3CC(CC(C3)C1)C2,-13,·,85,89
CCOC(=O)c1cccc(NC(=O)CCNS(=O)(=O)c2cccc3nonc23)c1,-66,100,108,81
Cn1c(=O)oc2cc(S(=O)(=O)NC(Cc3ccccc3)C(=O)NCc3ccccc3Cl)ccc21 (configuration not stated),13,103,97,91
CCN(C(=O)COc1ccc(OC)cc1)C1CCCCC1,-16,·,95,93
CCN(c1ccc(OC)cc1)S(=O)(=O)c1ccc2c(c1)CCN2C(=O)CCC(=O)O,-13,98,75,78
COc1ccc(Br)cc1CNC(=O)c1ccc2c(c1)nc1n2CCCCC1,·,102,75,72
Cc1nccn1CC(C)C(=O)O (configuration not stated),·,101,94,93
CCCN(CCC)CCNC(=O)c1cc2c(=O)oc3ccc(C)cc3c2s1,-101,110,95,88
S=c1n(CN2CCOCC2)nc(-c2cccs2)n1CC1CCCO1 (configuration not stated),-38,·,95,95
CCCC(O)c1nc2ccccc2n1CCOc1cc(C)ccc1C (configuration not stated),-14,104,·,·
CCC1CC(C)(C(=O)Nc2ccc(S(N)(=O)=O)cc2)OC1=O (configuration not stated),12,103,75,86
CCOC(=O)c1cnn(-c2ccc(C(=O)Nc3ccc(OC(F)(F)F)cc3)cc2)c1N,·,108,131,99
COC(=O)c1ccc2oc(=O)c(S(=O)(=O)c3ccc(C)cc3)cc2c1,-21,101,79,90
CCN(CC)C(=O)c1cc2ccccc2cc1O,-11,108,100,103
COc1ccccc1NC(=O)Cc1csc(N)n1,-4,·,97,86

Exported as labelled records: part of the list above
O=C(NCCCN1CCN(c2ccc(F)cc2)CC1)Nc1ccc(Cl)cc1
  HCMV UL50-53 inh = 5
  GIV-Gai inh = 102
  Sa growth inh = 120
  Sa growth inh second temp = 89

Cc1cccc(N(CC(=O)N2CCCC2)S(C)(=O)=O)c1
  HCMV UL50-53 inh = 1
  GIV-Gai inh = 100
  Sa growth inh = 109
  Sa growth inh second temp = 76

CCOC(=O)C1=C(C)N=c2s/c(=C\c3ccc(OC(C)=O)c(OC)c3)c(=O)n2C1c1ccc(OC)cc1 (configuration not stated)
  HCMV UL50-53 inh = -23
  GIV-Gai inh = 102
  Sa growth inh = ·
  Sa growth inh second temp = ·

COc1ccc(C(=O)O)cc1NCc1ccncc1
  HCMV UL50-53 inh = 12
  GIV-Gai inh = 106
  Sa growth inh = 67
  Sa growth inh second temp = 97

Continued:
Molecule,HCMV UL50-53 inh,GIV-Gai inh,Sa growth inh,Sa growth inh second temp
Cc1occc(=O)c1Oc1ncc(C(F)(F)F)cc1Cl,-1,104,·,·
Cc1onc(-c2ccccc2)c1CNC(=O)c1cc(F)cc2c1OCOC2,-8,99,97,95
CN(C(=O)COC(=O)c1ccc(Br)c(S(=O)(=O)N2CCOCC2)c1)c1ccccc1,-7,·,120,84
COc1ccc(-c2cc3nc(C)cc(NC4CCCC4)n3n2)cc1OC,-26,102,·,·
COc1ccc(CCNC(=O)c2onc(C)c2Cl)cc1OC,-3,100,98,88
CN(CC(=O)Nc1ccc(F)cc1)C(=O)Cc1coc2cc3c(cc12)CCC3,-11,·,111,90
S=C1CCN(Cc2ccccc2)c2ccccc2N1,-2,·,95,75
COCCn1cc(C(=O)N2CCN(c3ccc(C)cc3)C(C)C2)c2c3ccccc3n(C)c2c1=O (configuration not stated),-15,102,·,·
CC1(C)C(=O)N(CC(=O)N2CCN(c3ccccc3)CC2)c2ccc(S(=O)(=O)N3CCCC3)cc21,-37,103,·,·
CC(C)CCNC(=O)C1(C)Cn2nc(C(=O)NC3CC3)cc2C(=O)N1C (configuration not stated),-6,100,·,·
CCOC(=O)c1sc(N)c(C#N)c1COC(=O)c1c(CC)noc1C,19,·,82,100
O=C1CCC/C(=N/NC(=O)c2ccc(Cn3nnc(-c4ccccc4)n3)cc2)C1,-19,·,63,82
Cc1ccc(C(=O)Nc2nc3c(s2)CCCC3)cc1,-2,·,87,90
